# E coli growth: E. coli growth inhibition. Escherichia coli growth, OD600, 23 h; active compounds read low. OD600 absorbance (no concentration beside the values). 0.21% of 330,000 active. AID 1053175;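 active means OD600 absorbance below the run mean of sample wells minus 3.6 SD, in any replicate, cut at about 0.56 in these data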;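 further: stock transfer was 300 nL into about 60 µL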
# FGF22 binding: binders of recombinant human FGF22 by thermal shift; Q9HCT0; calls only at 9.99 µM; AID 651658; 1.5% of 340,000 active; SYPRO orange fluorescence; percent of sucrose octasulfate shift, DMSO zero;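 active means melting point raised past a set limit in the mean and every replicate; inconclusive means no clear call; three in four hits are not shown here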
# RanGTP-Impb inh: disruptors of Ran-importin-beta complex formation – biochemical, FRET, CFP-Ran, YFP-importin-beta, homogeneous, primary screen. cell-free CFP-Ran/YFP-importin-beta FRET ratio. inhibition, % (no concentration beside the values). 1.1% of 300,000 active;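 active means most replicates above 15%; inconclusive means exactly half above 15%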;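 further: 0% = DMSO wells and 100% = Ran loaded with GDP instead of GTP; wells of about 40 µL received 100 nL stock; the first replicate is given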
# MLL AF4-AF9 inh: inhibitors of human MLL-AF4/AF9 interaction; 0.47% of 350,000 active; AlphaScreen, biotin-AF4 peptide binding to FLAG-AF9; P42568; inhibition, % at 10 µM; AID 651704;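 active means every replicate reaching a set inhibition limit, whatever the replicate mean, cut at about 25% in these data; inconclusive means mean inhibition reaches that limit but some replicates miss it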;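 further: 0% = plate neutral control median and 100% = total signal loss; the record names both 10 and 1 µM as test concentration; the first replicate is given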
# Target sequence (P42568 whole entry, looked up): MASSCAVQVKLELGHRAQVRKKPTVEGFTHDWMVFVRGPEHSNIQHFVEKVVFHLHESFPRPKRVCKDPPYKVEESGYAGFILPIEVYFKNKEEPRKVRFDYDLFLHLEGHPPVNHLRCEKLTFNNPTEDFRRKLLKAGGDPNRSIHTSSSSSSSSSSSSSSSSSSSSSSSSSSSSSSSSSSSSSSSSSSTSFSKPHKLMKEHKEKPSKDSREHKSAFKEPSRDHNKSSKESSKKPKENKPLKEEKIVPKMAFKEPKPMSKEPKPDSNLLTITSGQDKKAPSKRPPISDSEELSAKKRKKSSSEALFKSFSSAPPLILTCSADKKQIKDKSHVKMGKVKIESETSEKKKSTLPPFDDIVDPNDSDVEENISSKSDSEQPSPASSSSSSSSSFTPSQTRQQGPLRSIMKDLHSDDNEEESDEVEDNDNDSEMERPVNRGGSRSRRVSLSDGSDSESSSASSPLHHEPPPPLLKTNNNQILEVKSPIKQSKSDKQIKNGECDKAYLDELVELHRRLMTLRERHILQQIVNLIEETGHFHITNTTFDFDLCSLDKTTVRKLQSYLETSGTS
# UCH37 DUB inh: inhibitors of human deubiquitinating enzyme UCH37 | inhibition, % (test concentration not listed) | Q9Y5K5 | 0.33% of 330,000 active | purified proteasome/UCH37, Ub-AMC cleavage fluorescence | AID 588478;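 active means mean of two replicates above 20%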;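 further: 0% = compound-free wells with enzyme and 100% = wells lacking proteasome; stock transfer was 100 nL into about 20 µL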
#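 Material: human UCH37 enzyme supplied as purified proteasome complex. Measure: % inhibition of Ub-AMC cleavage fluorescence. Medium: pH 7.4 Tris-HCl (50 mM) with ovalbumin, ATP-MgCl2, DTT. Times: 30 min preincubation with enzyme, 25 min cleavage at room temperature. Detection: AMC fluorescence intensity at 355/460 nm.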
# HNF4A DNA FP: change in binding of human HNF4 alpha to DNA; P41235; HNF4a-FITC DNA binding, fluorescence polarization, 1 h; activity change, % at 10 µM; 0.3% of 360,000 active; AID 1224865; in the data active means activity change above about 30%, passing the limit was not always enough;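 further: controls were the assay level and a saturating level of protein; the project sought stronger binding though the title names inhibitors; some compounds called inactive have numbers as strong as hits; positive values seem to mean higher polarization but the record does not say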
# Target sequence (P41235 whole entry, looked up): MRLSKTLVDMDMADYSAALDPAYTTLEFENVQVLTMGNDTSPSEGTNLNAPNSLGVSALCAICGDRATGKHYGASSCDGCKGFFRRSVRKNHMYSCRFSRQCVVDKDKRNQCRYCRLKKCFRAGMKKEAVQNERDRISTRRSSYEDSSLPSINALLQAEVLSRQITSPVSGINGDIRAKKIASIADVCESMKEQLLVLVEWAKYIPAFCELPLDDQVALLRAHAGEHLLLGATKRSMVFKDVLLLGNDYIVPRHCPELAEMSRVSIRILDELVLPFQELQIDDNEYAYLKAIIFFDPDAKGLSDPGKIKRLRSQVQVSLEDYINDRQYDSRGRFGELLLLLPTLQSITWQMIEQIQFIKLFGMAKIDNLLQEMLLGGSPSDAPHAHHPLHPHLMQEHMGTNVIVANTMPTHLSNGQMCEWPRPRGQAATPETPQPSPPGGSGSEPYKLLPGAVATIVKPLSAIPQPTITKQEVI
# Vif A3G: inhibitors of Vif binding to APOBEC3G peptide, primary screen, biochemical, TR-FRET, GST-Vif 1-94, biotin-A3G peptide, dose response retest (AID 1117319). TR-FRET GST-Vif / biotin-A3G peptide binding; higher % means a stronger effect; test concentration not given here; strong numbers were not always called active. inhibition, %, or IC50 in µM where a hit was titrated. 0.57% of 260,000 active;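 active means above the screen mean plus three standard deviations and confirmed in dose response; inconclusive means results disagree or hit not tested in dose response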;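 further: Vif residues 1-94 fused to GST binding biotinylated APOBEC3G peptide 110-148; 0% = full assay without inhibitor and 100% = GST in place of GST-Vif; retest series ran down from 100 µM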
# Numbers without * were called inactive; i = inactive; ? = inconclusive; / = no result given; & = joins results of further samples. Not all compounds are listed; the hit share may differ from the screen's.
SMILES,E coli growth,FGF22 binding,RanGTP-Impb inh,MLL AF4-AF9 inh,UCH37 DUB inh,HNF4A DNA FP,Vif A3G
FC(F)(F)c1ccc(-c2nnc(-c3ccccn3)c(-c3ccccn3)n2)nc1,0.666,i,-3.3,-2.2,7.0,7.3,4.2%
COC(=O)c1cc(=O)n(Cc2cccs2)c(=NCc2cccs2)s1,0.767,/,-1.1,/,7.3,-0.2,-4.7%
CC[C@@H]1C=C(C(=O)O)[C@H](c2ccc(OC)c(OC)c2)N1S(=O)(=O)c1ccc(C)cc1,0.708,i,/,-0.8,1.2,0.2,3.6%
c1ccc(-c2ccc(C3=Nn4c(nnc4-c4cc(-c5ccccc5)n[nH]4)SC3)cc2)cc1,0.787,i,?,3.0,6.6,-1.9,18.8%
CC(C)C(=O)NC(=S)Nc1sc2c(c1C(N)=O)CCCC2,0.72,i,-2.2,4.0,0.6,-0.9,-9.8%
O=c1c(C=Nc2ccc(Cl)cc2)c[nH]n1-c1cccc(Cl)n1,0.723,/,-2.8,/,3.5,-0.8,11.8%
S=C(Nc1ccc2nsnc2c1)NC1CCCCC1,0.619,i,-20.5,8.0,4.4,-4.8,/
O=C(NC1CCCCC1)[C@@H]1CSC2c3ccccc3C(=O)N21 (stereo not given in full),/,i,2.3,-5.1,/,-1.6,/
CC(C)N1CSC(=S)N(Cc2ccccc2)C1,0.599,i,1.9,-0.5,1.9,-1.1,-10.4%
Cc1ccc(/C=C/c2ccc(N(C)C)cc2)[n+](C)c1,0.603,i,-18.3,6.0,27.2*,89.1*,/
CN1CCC(NC(=O)CCc2ccccc2)CC1,0.645,i,2.7,4.5,2.0,-0.8,-5.5%
CCN(CC)/C(Sc1ccccc1)=C(/C(Cl)=C(Cl)Cl)[N+](=O)[O-],0.684,i,8.8,5.5,4.1,1.9,7.6%
Cc1cc(/C=C2/NC(=O)N(c3ccccc3)C2=O)c(C)n1C(C)C,0.697,i,-0.2,7.4,-2.3,-1.0,4.0%
COc1ccccc1OCCCCCCN1CCOCC1,0.656,i,-3.9,-2.1,-1.2,3.4,32.0%
O=C(NCCCNC(=O)c1cc(Cl)ccc1Cl)c1ccco1,0.691,i,-1.1,-1.2,2.0,1.8,/
O=C(CSc1nnc(NC(=O)c2cccc(Cl)c2)s1)NCC1CCCO1 (stereo not given),0.7,i,-1.1,-1.3,0.4,0.5,3.8%
CC(=O)N1CCN(C(=O)CCNS(=O)(=O)c2ccccc2)CC1,0.658,i,/,1.4,3.5,6.0,-2.6%
CC(C1CC1)N(Cc1ccccc1)C(=O)NC(=O)c1ccccc1 (stereo not given),0.696,i,-1.2,-0.6,4.9,1.8,5.3%
O=C(CCSc1nnc2ccccn12)Nc1ccc2c(c1)OCO2,0.711,i,-2.0,-19.4,-5.6,-0.7,15.3%
CCCNC(=O)c1cc2cc([N+](=O)[O-])ccc2s1,0.625,i,0.1,0.1,-1.2,2.1,-0.9%
O=C(CCCCCn1c(=S)[nH]c2cc3c(cc2c1=O)OCO3)N1CCN(Cc2ccccc2)CC1,0.703,/,/,/,0.6,1.6,9.6%
COc1ccc(/C=C2\N=C(c3ccccc3)N(c3ccc(C(=O)O)cc3)C2=O)cc1OC,0.691,i,25.8*,2.1,7.9,1.6,-7.7%
O=C(CSC1=NC(=O)C(c2ccccc2)C(=O)N1)Nc1ccccc1Cl (stereo not given),0.747,/,0.1,/,11.2,4.8,-4.0%
O=C(C[C@@H]1C/C=C\C[C@H](NC(=O)OCC2c3ccccc3-c3ccccc32)C(=O)OC[C@@H]2CCCN2C1=O)NCCO,/,i,/,4.0,0.2,4.8,/
Cc1cccc(C(=O)NNC(=O)C23CC4CC(CC(C4)C2)C3)c1O,0.635,i,-0.3,0.2,-9.2,3.5,-5.1%
# (list continues)
SMILES,E coli growth,FGF22 binding,RanGTP-Impb inh,MLL AF4-AF9 inh,UCH37 DUB inh,HNF4A DNA FP,Vif A3G
O=C(N/N=C/c1ccco1)c1ccncc1,/,/,-3.3,/,/,-2.1,?
COc1ccc(NC(=O)c2ccco2)cc1NC(=O)c1c(F)c(F)c(OC)c(F)c1F,0.724,/,0.3,/,-11.3,-1.7,-4.0%
Cc1cc(C(=O)NNC(=O)c2cccs2)nn1C(C)(C)C,0.683,i,-0.6,-1.2,0.3,3.0,-0.3%
COc1ccc(-n2cnc3cc(C(=O)N4CCOCC4)ccc32)cc1,0.672,i,4.9,-19.7,1.0,1.2,/
COc1ccc(S(=O)(=O)N2CCN(Cc3ccco3)CC2)cc1,0.667,i,-0.2,1.4,5.4,-0.6,-1.3%
O=C1CCCN1c1ccc(S(=O)(=O)Nc2cccnc2)cc1,0.646,i,1.4,2.0,0.2,-0.4,2.4%
Fc1ccc(COc2ccc(/C=N/n3cnnc3)cc2)cc1,/,/,-3.1,/,/,-3.8,-6.3%
COC(=O)C[C@H]1C[C@@H]2c3cc(NC(=O)Nc4ccc(F)cc4)ccc3O[C@@H]2[C@@H](CO)O1,/,i,/,0.1,/,-2.2,3.9%
CC1CN(S(=O)(=O)c2ccc(C(=O)Nc3ccc(S(=O)(=O)N4CCOCC4)cc3)cc2)CC(C)O1 (stereo not given),0.723,i,-1.7,1.4,3.4,6.8,2.7%
Cc1ccc(C)c(N(CC(=O)NC2CCCC2)C(=O)c2cc3cc4cccc(C)c4nc3s2)c1,0.681,i,-0.3,-16.8,1.8,-5.5,-1.6%
CN(C)CCN1C(=O)NC(C)(c2ccc([N+](=O)[O-])cc2)C1=O (stereo not given),0.692,/,-2.8,2.0,-0.9,-2.4,-5.7%
Fc1cccc(CN2CCCCCCC2)c1,0.662,/,4.0,/,1.9,-0.8,1.8%
COCC(=O)N1CCC(n2nccc2NC(=O)c2ccccc2OC)CC1,0.728,i,2.4,0.0,6.3,3.3,/
Cc1ccc(C)c(OCC(O)CN2CCc3ccccc3C2)c1C (stereo not given),0.639,i,?,5.9,1.2,0.5,-1.7%
Cc1cc(C(=O)CSc2nc(N)cc(N)n2)c(C)n1CC1CCCO1 (stereo not given),0.698,i,/,1.5,0.2,-1.0,-7.0%
CC(OC(=O)CCN=C1NS(=O)(=O)c2ccccc21)C(=O)Nc1ccc(N(C)C)cc1 (stereo not given),/,i,0.6,8.3,/,-1.8,/
CCOC(=O)CN1C(=O)N[C@@H](c2cccs2)C(C(C)=O)=C1C,/,i,-1.3,-7.4,1.9,-5.4,/
COc1cccc(Nc2nnc(SCN3C(=O)c4ccccc4C3=O)s2)c1,0.714,i,-1.9,-0.6,3.4,4.3,/
O=C(NC(=S)Nc1cccc([N+](=O)[O-])c1)C1CCCC1,0.698,i,1.0,9.5,2.3,-5.3,4.9%
COc1cccc(-n2c(Cc3cc(=O)[nH]c(=O)[nH]3)nnc2SCC(=O)N2CCCC2)c1,0.683,/,1.6,/,1.7,-10.6,0.5%
O=c1[nH]c(Nc2ccccc2)cc2ccccc12,0.751,/,42.9*,/,-26.7,-0.9,-4.1%&9.5%
CCc1nccn1CCC(=O)N1CCCC(Nc2ccc(F)cc2)C1 (stereo not given),0.684,i,3.0,1.1,1.8,0.0,/
COc1ccc(C(=O)N2CCN(c3ccc([N+](=O)[O-])c(-n4nc(C)cc4C)c3)CC2)cc1,0.661,/,-0.3,/,8.7,0.6,-6.4%
Cc1ccccc1C(=O)NNC(=O)c1ccc(F)cc1,0.658,/,-0.3,/,2.5,2.9,3.7%
CCCCN(CC)CCCNC(=O)C1CCN(c2ncnc3c2sc2cccc(F)c23)CC1,0.692,i,2.1,-0.3,-12.4,-2.2,10.9%

# The final 3 records of the section above are carried over, then new ones follow.
SMILES,E coli growth,FGF22 binding,RanGTP-Impb inh,MLL AF4-AF9 inh,UCH37 DUB inh,HNF4A DNA FP,Vif A3G
COc1ccc(C(=O)N2CCN(c3ccc([N+](=O)[O-])c(-n4nc(C)cc4C)c3)CC2)cc1,0.661,/,-0.3,/,8.7,0.6,-6.4%
Cc1ccccc1C(=O)NNC(=O)c1ccc(F)cc1,0.658,/,-0.3,/,2.5,2.9,3.7%
CCCCN(CC)CCCNC(=O)C1CCN(c2ncnc3c2sc2cccc(F)c23)CC1,0.692,i,2.1,-0.3,-12.4,-2.2,10.9%
COc1ccc(-c2cc(NC=O)c3ncc(-c4cccc(C(=O)NCCN(C)C)c4)n3c2)cn1,/,i,/,8.5,/,0.6,/
CC(C)OCCCNC(=O)c1ccc(Br)cc1,0.672,/,-0.2,/,1.3,1.7,2.3%
CC(=O)Nc1ccc(S(=O)(=O)N(C)CC(=O)N/N=C/c2cccc(O)c2)cc1,/,i,-3.5,1.4,/,-0.9,19.3%
COc1ccc(NC(C)=O)cc1NC(=O)c1cccc(C(F)(F)F)c1,0.671,i,-2.3,2.0,2.9,-0.9,11.4%
CCCNC(=O)c1onc(CSc2ccccn2)c1C(=O)NCCC,0.644,i,1.7,-1.7,1.8,-2.0,3.4%
O=C(c1cnc(N2CCN(c3ccccn3)CC2)c2ccccc12)N1CCN(c2cccc(Cl)c2)CC1,0.709,i,2.6,0.4,-8.4,3.3,1.4%
CCCNC(=O)Cn1sc2nc(C)cc(C)c2c1=O,0.692,/,-4.1,-10.7,4.1,5.8,11.2%
O=C(c1ccccc1)N(Cc1ccc(F)cc1)Cc1nc2ccccc2c(=O)[nH]1,0.664,/,3.7,/,3.1,-1.8,7.1%
COc1ccc(C(C)(C)C)cc1NC(=O)C1CC=CCC1C(=O)O (stereo not given),0.674,/,0.5,/,-1.7,1.1,3.5%
Cc1noc(C(=O)Nc2ccc(C#N)cc2)c1Cl,0.684,i,-1.2,0.1,0.4,3.2,-6.9%
C=CCNc1nc(Cl)nc(NCc2ccco2)n1,0.641,i,2.3,0.2,5.5,-1.3,/
CC(C)Nc1ncnc2c1ncn2[C@H]1CN(Cc2ccc3c(c2)OCO3)C[C@@H](CO)O1,/,i,/,-2.4,/,3.5,/
COc1ccc(C(=O)Oc2ccc(C(=S)N3CCOCC3)cc2)cc1,0.708,i,4.9,-7.2,0.3,-3.1,/
O=C(CCC(=O)NC1CCCCC1)NCc1ccc(F)cc1,0.695,i,4.5,-4.6,5.1,-2.7,-12.9%
CCc1cc2c(NC(Cc3ccccc3)C(=O)O)nc(C)nc2s1 (stereo not given),0.696,i,-1.9,-6.7,0.6,0.1,/
CC1CN(CCCOc2ccccc2[N+](=O)[O-])CC(C)O1 (stereo not given),0.729,/,-5.3,/,2.1,0.7,?
Cc1c(C(=O)N2CCC(C)CC2)sc2ncnc(N3CCN(c4ccccc4)CC3)c12,0.673,/,/,/,1.5,0.2,-5.9%
O=C(NCc1cccnc1)[C@@H]1CC=C[C@@H]2CCN(Cc3ccc(Cl)c(Cl)c3)C(=O)[C@@H]21,/,i,0.7,-8.8,2.9,2.5,/
CCOC(=O)Cc1c(C)nc2c(C#N)c[nH]n2c1=O,0.662,i,4.2,-0.6,1.3,2.5,2.2%
CC(C)Cc1nc(NCCN2CCOCC2)c(C#N)c2c1COC(C)(C)C2,0.763,/,0.2,-5.2,-8.0,2.0,1.5%
CCN(C(=O)CSc1ncnc2sccc12)c1c(N)n(Cc2ccccc2)c(=O)[nH]c1=O,0.647,i,/,-0.6,1.9,7.8,-0.4%
CN1CCN(C(=O)CCn2c(=O)c3cccn3c3cccnc32)CC1,0.66,i,1.1,-2.0,-1.5,1.8,/
COc1ccc2ccccc2c1/C=N/NC(=O)c1nnn(-c2nonc2N)c1CN(C)C,/,i,4.6,0.4,/,-0.8,/
Cc1cccc(C(=O)N(C(=O)c2cccc(C)c2)N(C)C)c1,0.659,i,/,-2.2,2.1,-3.2,5.7%
CCOc1ccc(N2CC(C(=O)Nc3ccccc3C(=O)NC3CC3)CC2=O)cc1 (stereo not given),0.7,i,-2.3,-2.2,0.0,0.4,/
CC(C)(C)C1CCC2(CC1)SCC(=O)N2c1ccccc1 (stereo not given),0.705,i,4.7,-0.1,5.4,-0.2,-3.2%

# Screens from PubChem BioAssay.
